StopGo RLuc – lowers the Renilla signal of an FMDV 2A StopGo reporter. HEK cells with a luciferase reporter of 2A StopGo recoding. Potency, µM (top dose mostly 57.5 µM), for the others: at the top dose signal change, negative = less light. 0.32% of 120,000 active. AID 1745857; active means well fitted falling curve with a large enough effect; inconclusive means small, poorly fitted or top-dose-only effect; inactive means no such curve, though single readings can be large or run the other way; also: nearly all actives have a fitted effect of over 55% in size; overnight with compound
StopGo FLuc – FMDV 2A StopGo reporter, firefly signal | HEK cells with a luciferase reporter of 2A StopGo recoding | Potency, µM (series often up to 57.5 µM), without a hit: at the highest dose signal change, negative = less light | 0.23% of 120,000 active; active = well fitted falling curve with a large enough effect; inconclusive = small, poorly fitted or top-dose-only effect; inactive = no such curve, though single readings can be large or run the other way; also: nearly all actives have a fitted effect of over 60% in size; overnight with compound
An asterisk follows results filed as active; ? = inconclusive; & = joins results of further samples; [ ] = remark or other dose. % is scaled to controls: 0 for no effect and ±100 for the full control effect; potency is read from the fitted curve at half-maximal effect. Only part of the results is shown, so the mix of outcomes need not match the whole.

SMILES	StopGo RLuc	StopGo FLuc
O=C(c1ccc(F)cc1)N1CCC(CCc2ccc(O)cc2)CC1	-12%	-28%
O=C1CS(=O)(=O)C2(C(=O)N(Cc3ccccc3)c3ccccc32)N1c1ccccc1 (configuration not stated)	-3%	-18%
Cc1ccc(Nc2ncnc3c2cnn3-c2ccccc2)c(C)c1	8%	273%[activator]
CN(Cc1ccco1)C(=O)c1ccc2ncsc2c1	43%[activator]	53%[activator]
CCOc1cc(C(=O)NCCc2csc3nc(-c4ccc(C)cc4)nn23)cc(OCC)c1OCC	-3%	-13%
CC(O)COc1ccccc1 (configuration not stated)	-9%	-9%[11.5 µM]
COc1cc(OC)c(NC(=O)c2cc(CN3CCOCC3)on2)cc1Cl	34%[activator]	-8%
CCn1nc(C(=O)Nc2cccc3ncccc23)c2ccccc2c1=O	4%	3%
CCN(CC)CCNC(=O)C(=O)Nc1ccc2cc[nH]c2c1	-3%	11%
Cc1ccc(NC(=O)C(C)Sc2nc(C)c(C)n2CC(C)C)cc1 (configuration not stated)	-20%	-12%
COc1ccc(CC2C(=O)N(C)c3ccc(Br)cc32)cc1 (configuration not stated)	1%	-5%
Cc1csc(/C(C#N)=C\c2ccccc2OC(F)F)n1	28%	25%
COc1cc(/C=C/c2nc3ccccc3o2)ccc1OC(C)C	11%	203%[activator]
CCCSc1ncc(Cl)c(C(=O)Nc2ccc(CC)cc2)n1	-2%	16%
COc1ccc(CNC(=O)Nc2nnc(C3CC3)s2)cn1	9%	42%[activator]
Nc1nc2c(s1)C(c1cccc(Cl)c1Cl)CC(=O)N2 (configuration not stated)	-2%	12%
COc1ccc(NC(=O)CC2C(=O)N(c3cccc(C)c3)C(=O)N2C2CCCCC2)cc1 (configuration not stated)	30%[activator]	-12%
Nc1c(-c2nc(-c3ccccc3Cl)no2)nnn1-c1ccccc1C(F)(F)F	0%	70%[activator]
CCNc1c(NC(=O)Nc2ccc(Br)cc2F)c(=O)oc2ccccc12	-1%	3%
Cc1cc(C)nc(NS(=O)(=O)c2ccc(Nc3nc(-c4ccc(C(C)C)cc4)cs3)cc2)n1	34%[activator]	12%

The list goes on; it opens with the 5 that closed the last part.
SMILES	StopGo RLuc	StopGo FLuc
Nc1nc2c(s1)C(c1cccc(Cl)c1Cl)CC(=O)N2 (configuration not stated)	-2%	12%
COc1ccc(NC(=O)CC2C(=O)N(c3cccc(C)c3)C(=O)N2C2CCCCC2)cc1 (configuration not stated)	30%[activator]	-12%
Nc1c(-c2nc(-c3ccccc3Cl)no2)nnn1-c1ccccc1C(F)(F)F	0%	70%[activator]
CCNc1c(NC(=O)Nc2ccc(Br)cc2F)c(=O)oc2ccccc12	-1%	3%
Cc1cc(C)nc(NS(=O)(=O)c2ccc(Nc3nc(-c4ccc(C(C)C)cc4)cs3)cc2)n1	34%[activator]	12%
S=C(NCCc1c[nH]c2ccccc12)Nc1ccc(Br)cc1	?	0%
COc1ccc(-n2cc(C(=O)OCc3ccc(Cl)cc3)c3ccccc3c2=O)cc1	-10%	-11%
CCN(C(=O)COc1ncnc2ccc(Br)cc12)c1ccccc1	6%	-21%
CCc1ccc(NC(=O)CSc2nc3c(sc4ccccc43)c(=O)n2CCN(CC)CC)cc1	-8%	-3%
CCOC(=O)c1cc2c(=O)n3ccccc3nc2n(C)c1=NC(=O)c1cc2ccccc2o1	-9%	9%
N#Cc1ccc(NC(=O)C2CC(c3ccc(F)cc3)=NO2)cc1 (configuration not stated)	?	7%
Cn1cc(C(=O)NCCNC(=O)Cc2ccc(F)cc2)c2ccccc21	-7%	2%
Cc1ccc(-c2noc(-c3ccccc3NC(=O)C3CC(=O)N(c4ccccc4C)C3)n2)cc1 (configuration not stated)	-13%	37%[activator]
COc1ccc(N2CCN(C(=O)c3cc(-c4ccc(C)c(F)c4)on3)CC2)cc1	-13%	-12%
COc1ccc(C(=O)NCC(c2ccc3c(c2)OCO3)N2CCN(c3ccc(F)cc3)CC2)cc1 (configuration not stated)	?	?
CCC(=O)Nc1ccc(Cl)c(NC(=O)c2cccc3c(Br)cccc23)c1	-9%	-11%
CCOc1ccc(C(CC(=O)Nc2cc(C)c(Cl)cc2OC)N2Cc3ccccc3C2=O)cc1OC (configuration not stated)	15%	-20%
CCS(=O)(=O)N1CCc2cc(C(=O)NCc3ccc(C)cc3)ccc21	2%	4%
Cc1cccc(Cc2cnc(NC(=O)c3cc(=O)c4cc(C)ccc4o3)s2)c1	-10%	3%
CCOc1ccc(/C(O)=C2\C(=O)C(=O)N(c3nccs3)C2c2ccc(OC)cc2)cc1 (configuration not stated)	-5%	25%
CN(C)CCc1c[nH]c2cccc(O)c12	-14%[114 µM]	-2%[22.9 µM]
CC(C)(C)c1ccc(C(=O)Nc2ccccc2)cc1Br	-21%	0%
CCCSCCCNC(=O)C1CCCN(c2nn3cc(-c4ccc(OC)cc4)nc3s2)C1 (configuration not stated)	?	3%
CSCCC(NC(=O)c1ccc(-c2ccc(Cl)cc2)s1)C(=O)O (configuration not stated)	-1%	60%[activator]
COc1ccccc1N1CCN(CCS(C)(=O)=O)CC1	1%	-10%

Next section, overlapping the part above by 7 compounds.
SMILES	StopGo RLuc	StopGo FLuc
Cc1cccc(Cc2cnc(NC(=O)c3cc(=O)c4cc(C)ccc4o3)s2)c1	-10%	3%
CCOc1ccc(/C(O)=C2\C(=O)C(=O)N(c3nccs3)C2c2ccc(OC)cc2)cc1 (configuration not stated)	-5%	25%
CN(C)CCc1c[nH]c2cccc(O)c12	-14%[114 µM]	-2%[22.9 µM]
CC(C)(C)c1ccc(C(=O)Nc2ccccc2)cc1Br	-21%	0%
CCCSCCCNC(=O)C1CCCN(c2nn3cc(-c4ccc(OC)cc4)nc3s2)C1 (configuration not stated)	?	3%
CSCCC(NC(=O)c1ccc(-c2ccc(Cl)cc2)s1)C(=O)O (configuration not stated)	-1%	60%[activator]
COc1ccccc1N1CCN(CCS(C)(=O)=O)CC1	1%	-10%
Cc1c(CC(=O)NCCc2ccccc2F)c(=O)oc2cc(O)c(Cl)cc12	6%	-19%
CCN1CCN(c2ccc(C(=O)O)cc2NS(=O)(=O)c2ccccc2)CC1	-9%	2%
CCOC(=O)c1c(-c2ccc(OC)cc2)oc2ccc(OCc3ccccc3C)cc12	-9%	-8%
Cc1ccc2oc(C(=O)NCc3ccccc3)cc(=O)c2c1	19%	28%
CC(C)Cn1c(=O)c2sccc2n2c(CCCC(=O)NCCc3ccccc3)nnc12	-7%	-3%
COc1ccccc1NC(=O)Nc1nc2cc(C)c(C)cc2s1	15%	215%[activator]
N#Cc1ccccc1OCC(=O)N1CCN(c2ccccc2F)CC1	24%	11%
CCC(C)NC(=O)c1cc(Sc2cccc(Cl)c2)nc2ccccc12 (configuration not stated)	22%	5%
O=C(CSc1nc2cc(Cl)ccc2s1)Nc1ccc(C(F)(F)F)cc1	7%	0%
CCOc1ccc(-c2nc(SCC(=O)Nc3nccs3)c(-c3ccc(F)cc3)[nH]2)cc1	22%	16%
COc1ccc(CCn2cc3c(c2-c2ccc(Br)cc2)c(=O)n(C)c(=O)n3C)cc1OC	-13%	-13%
COCCNC(=S)N/N=C1\C=C(C)CC1	-14%[1.06 µM]	-8%
CCOc1ccc(NCc2cccn2-c2nnc(N3CCC(C(=O)NC4CCCC4)CC3)s2)cc1	?	?
CC(C)NC(=O)c1cc(-c2ccc(Br)cc2)nc2ccccc12	13%	22%
CC(C)=NNC(=O)CCC(=O)NN=C(C)C	-4%	16%
Cn1c(COc2ccccc2Cl)nnc1SC1CCCCCC1=O (configuration not stated)	34%[activator]	101%[activator]
COc1ccc2nc(C(=O)NC(C3CC3)C3CC3)ccc2c1	3%	46%[activator]
Cc1occc1-c1nnc(SCC(=O)NC(C)c2ccc3c(c2)OCCO3)n1-c1ccccc1 (configuration not stated)	0%	-6%
COc1ccc(N2CCN(Cc3nc4c(c(=O)[nH]c(=O)n4C)n3CC(C)C)CC2)cc1	-17%	-17%
Cc1ccc(Cl)cc1N1CCN(S(=O)(=O)c2cc3[nH]c(=O)c(=O)[nH]c3cc2C)CC1	-9%	4%
CC(CCc1ccccc1)NC(=O)Cn1c(=O)nc(-c2ccccc2)c2ccccc21 (configuration not stated)	1%	9%
CCOC(=O)NC(C)c1ccc(OC)cc1 (configuration not stated)	3%	-11%
COc1ccc(NC(=O)Cn2c(=O)ccc3cc(S(=O)(=O)N4CCCC4)ccc32)cc1Cl	9%	5%
Oc1c(C(c2ccccc2F)N2CCCC2)sc2nc(-c3ccco3)nn12 (configuration not stated)	30%	-9%
Cc1cc(C(=O)NCC#Cc2cccc(C(F)(F)F)c2)c2ccccc2n1	-3%	-11%
COc1ccc(C(=O)Oc2c(Sc3ccc(C)cc3)c(C)nn2C(C)(C)C)c(OC)c1	?	?
COc1ccccc1NC(=O)Cn1ccc2ccc(Cl)cc21	0%	6%
O=C(CCC(=O)c1ccc2c(c1)OCCO2)OCc1ccc(Cl)cc1Cl	8%	2%
O=C(COCc1cc(-c2ccc3c(c2)OCO3)on1)NCc1ccc(F)cc1	-13%	10%
N#CC1c2ccccc2-n2nncc2CN1C(=O)c1ccc([N+](=O)[O-])o1 (configuration not stated)	-5%	11%
CCCCn1c(SCC(=O)Nc2ccc(F)cc2)nc2c(sc3ccccc32)c1=O	10%	-13%
CCCNC(=O)CCNC(=O)N1CCn2c1nc1ccccc12	-10%	9%
CCOc1cccc2sc(NC(=O)c3ccc(S(=O)(=O)N4CCCCC4)cc3)nc12	-2%	4%
N#Cc1ccc(/C=C/C(=O)c2ccsc2)cc1	13%	21%
CCCC(=O)NCC(c1ccc2c(c1)OCO2)N1CCN(c2ccccc2)CC1 (configuration not stated)	26%	-15%
CC1(C)CC(NC(=S)NCc2ccc(F)cc2)CC(C)(C)N1	-14%[1.06 µM]	-6%
O=C(N/N=C/c1ccc(Oc2ccccc2)cc1)c1cccs1	-9%[1.06 µM]	177%[activator]
CC(C)Cn1cc(C(=O)N2CCN(c3cccc(Cl)c3)CC2)c2c3ccccc3n(C)c2c1=O	-9%	-25%
CCCC(C)NC(=O)CCc1ccc(-c2ccc(OC)cc2)o1 (configuration not stated)	3%	44%[activator]
CSc1ccc(CNC(=O)Cn2nc(N3CCN(c4ccccc4)CC3)ccc2=O)cc1	10%	-24%
COc1cccc(CNC(=O)CCCn2nc(C)c3sc4ccccc4c3c2=O)c1	-13%	0%
CCc1cccc(NC(=O)c2ncoc2-c2cccs2)c1	-6%	69%[activator]
CCCn1cc(S(=O)(=O)c2ccc(C)cc2)c(=O)c2cc(F)c(N3CCCC3)cc21	12%	0%
CCc1ccc2oc(=O)cc(CN3CCN(CC(=O)N(C)C4CCCCC4)CC3)c2c1	-20%	-13%
CN(C)c1ccc(C(CNS(=O)(=O)c2ccccc2)N2CCc3ccccc32)cc1 (configuration not stated)	-12%	25%
COc1ccc(N2CCN(S(=O)(=O)CCNC(=O)COc3cccc(OC)c3)CC2)cc1	-9%	-11%
COc1ccc2oc(-c3ccc(NC(=O)CC45CC6CC(CC(C6)C4)C5)cc3)nc2c1	-11%	-1%
COc1ccc(C2C(=O)N(C3CCC(C)CC3)CC(=O)N2Cc2ccc(C)cc2)cc1OC (configuration not stated)	0%&33%	1%&-9%
CCC1CN(C(=O)N2CCC(C(=O)NCc3ccco3)CC2)c2ccccc2O1 (configuration not stated)	-3%	-18%
O=C(O)c1cc2c(Br)cccc2[nH]1	14%	0%
O=C(Nc1nnc(S(=O)(=O)N2CCCCCC2)s1)c1ccccc1F	75%[activator]	99%[activator]
O=C(Cn1nc(-c2ccc(Cl)cc2)c2ccccc2c1=O)Nc1ccc(Cl)cc1	-14%	-4%
Cc1cccc(NC(=O)c2ccc3ccccc3n2)c1C	15%	18%
CCOCCCNC(=O)c1ccc2nc(C)c(C)nc2c1	2%	124%[activator]
O=C(CSc1nc2ccccc2o1)NC(=O)NC1CCCCC1	-12%	10%
CCOc1ccc(CCNC(=O)CN2C(=O)COc3ccc(S(=O)(=O)N(CC)CC)cc32)cc1	293%[activator]	17%
NC(N)=NC(N)=NCc1ccncc1	12%	0%
COCCCNC(=O)c1sc2nc3n(c(=O)c2c1C)CCC3	-8%	16%
CCc1ccccc1NC(=O)Cn1c(-c2nonc2N)nc2ccccc21	4%	-22%
CCc1ccc2oc(-c3ccc(NC(=O)c4ccc([N+](=O)[O-])o4)cc3)nc2c1	-9%	157%[activator]
New compounds follow:
SMILES	StopGo RLuc	StopGo FLuc
O=C(O)CNS(=O)(=O)c1cc(C(F)(F)F)ccc1Cl	0%	-5%
COc1cc(CNc2ccc(N3CCOCC3)c(C(=O)O)c2)cc(Br)c1OCC(N)=O	9%	-5%
C=CCNC(=S)Nc1ccccc1F	13%	35%[activator]
O=C(N[C@@H](C(=O)NCc1ccccn1)c1ccccc1)C(c1ccccc1)c1ccccc1	27%	-4%
COC(=O)c1cc(S(=O)(=O)N2CCN(c3cccc(C)c3)C(C)C2)c[nH]1 (configuration not stated)	15%	10%
Cc1cc(N2CCCCC2)nc2ccc(NC(=O)CCC(=O)N3CCN(c4ccccc4)CC3)cc12	4%	56%[activator]
Cc1ccccc1C(=O)NC(c1ccc(Cl)cc1)c1cccnc1 (configuration not stated)	12%	7%
O=C(Nc1nc2n(n1)C(c1ccc(F)cc1)C=C(c1ccc(Cl)cc1)N2)c1ccc([N+](=O)[O-])cc1 (configuration not stated)	-7%	-5%
CCOC(=O)c1cnc2nc(-c3cccnc3)nn2c1C	4%	58%[activator]
O=C(NCc1ccc2c(c1)CCN2C(=O)c1ccc(Cl)cc1)c1ccco1	-18%	0%
Cc1oc2cc(OC(C)C(=O)Nc3ccc4c(c3)OCCO4)ccc2c(=O)c1-c1ccccc1 (configuration not stated)	-10%	12%
Cc1nn(CC(C)C)c2sc(C(=O)N3CCN(S(=O)(=O)c4cc(F)ccc4F)CC3)cc12	1%	-4%
CC(C)CCOC(=O)c1ccc(N(C)C)cc1	-2%	45%[activator]

Assay outcomes from PubChem BioAssay.
